Bioassay records deposited in PubChem by National Center for Advancing Translational Sciences (NCATS).
D2 potentiator – human D2 receptor positive allosteric modulation; 360,000 tested, 0.23% active; potentiation, % (test concentration not listed); P14416; DiscoveRx D2 beta-arrestin cells, luminescence, 90 min; 100% = 57 uM dopamine signal; AID 624464; active = potentiation of 50% or more; inconclusive = 30% to 50%; inactive = 30% or less;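 further: compound concentration not given in the record; tested on top of an EC20 dose of dopamine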
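PathHunter beta-arrestin assay in DiscoveRx D2 cells. Compounds were added with an EC20 of dopamine (50 nM final) for 90 min at 37 deg C. Luminescence was read 1 h after detection reagent, with 57 uM dopamine as the EC100 control.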
TRPML1 blocker – human mucolipin-1 channel inhibition; Q9GZU1; TRPML1-inducible cells, Ca2+ dye fluorescence, FDSS; active compounds read low; inhibition of EC80 agonist-evoked calcium signal; activity change, negative = inhibition, % (concentration not given with the values); 390,000 tested, 0.02% active; AID 624415; in the data active means activity change below about -50%; inconclusive means about -30% to -50%; inactive means above about -30%;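 further: stimulus is agonist 54-4 at its EC80 concentration; on the % scale 0 is the no-effect control and ±100 the full control effect; the text of the record puts the active cut at -80%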
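Calcium fluorescence in TRPML1-DL cells induced overnight with Tet: a 110 s read after compound pin addition, then a 110 s antagonist read after challenge with 54-4 at 4 uM final (EC80).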
D2 ag – human D2 receptor agonism in beta-arrestin assay. 360,000 tested, 0.084% active. activation, % (concentration not given with the values). DiscoveRx PathHunter D2 beta-arrestin, luminescence, 90 min; 100% = 57 uM dopamine signal. AID 624465. P14416; in the data active = activation above about 40%; inconclusive = about 15% to 40%; inactive = below about 15%; further: compound concentration not given in the record; the text of the record calls up to 30% inactive
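Agonist mode: compounds alone added to overnight-plated D2 PathHunter cells for 90 min at 37 C, with 57 uM final dopamine (EC100) defining full response. Beta-arrestin recruitment detected by chemiluminescent reagent, read after 1 h at ambient temperature.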
PINK1 modulator – PINK1 expression modulation; 410,000 tested, 0.2% active; PINK1 immunofluorescence, high-content cytometry, 24 h; AID 624263; Potency, µM (highest dose often 76.6 µM), inactives show at the highest dose activation (PINK1 increase), usual class: activators; active = well fitted activation curve with a large enough effect; inconclusive = small, poorly fitted or top-dose-only effect; inactive = flat fitted curve, though single readings scatter; cell line not stated here;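 further: potency means the concentration at half of the fitted maximal effect; % of control where 0% means no effect; nearly all actives have a fitted effect of over 65% in size; a mitochondrial uncoupler was the plate control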
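Readout is PINK1 immunofluorescence, quantified alongside mitochondrial, cell and nuclear markers by laser-scanning microplate cytometry. Cells from a stable line were exposed to compound titrations (5 concentrations) for 24 hours, with CCCP controls.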
TRPML1 agonist – human mucolipin-1 channel agonism | TRPML1-expressing cells, Ca2+ dye fluorescence, FDSS; host cell line not named in the record; reference of the full effect not given here | Q9GZU1 | activation, % (no concentration beside the values) | AID 624414 | 410,000 tested, 0.12% active; in the data active = activation above about 50%; inconclusive = about 30% to 50%; inactive = below about 30%; further: 0% is about no effect; the text of the record puts the active cut at 80%
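In this qHTS format, compounds were pin-transferred onto Ca8-dye-loaded TRPML1-DL cells induced with Tet overnight, and intracellular Ca2+ fluorescence was recorded kinetically for 110 s after a 10 s baseline. A subsequent 4uM final 54-4 (EC80) addition followed by a second 110 s read served as the antagonist phase.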
Six1-Eya2 inh – blocks human Six1 binding to Eya2. Q15475+O00167. AlphaScreen GST-Six1/His-Eya2 binding, biochemical; active compounds read low; control for the full effect not named in the record. activity change, % (no concentration beside the values). 360,000 tested, 0.56% active; in the data active = activity change below about -65%; inconclusive = about -30% to -65%; inactive = above about -30%; further: on the % scale 0 is the no-effect control and ±100 the full control effect
Target sequence (O00167 whole entry, looked up): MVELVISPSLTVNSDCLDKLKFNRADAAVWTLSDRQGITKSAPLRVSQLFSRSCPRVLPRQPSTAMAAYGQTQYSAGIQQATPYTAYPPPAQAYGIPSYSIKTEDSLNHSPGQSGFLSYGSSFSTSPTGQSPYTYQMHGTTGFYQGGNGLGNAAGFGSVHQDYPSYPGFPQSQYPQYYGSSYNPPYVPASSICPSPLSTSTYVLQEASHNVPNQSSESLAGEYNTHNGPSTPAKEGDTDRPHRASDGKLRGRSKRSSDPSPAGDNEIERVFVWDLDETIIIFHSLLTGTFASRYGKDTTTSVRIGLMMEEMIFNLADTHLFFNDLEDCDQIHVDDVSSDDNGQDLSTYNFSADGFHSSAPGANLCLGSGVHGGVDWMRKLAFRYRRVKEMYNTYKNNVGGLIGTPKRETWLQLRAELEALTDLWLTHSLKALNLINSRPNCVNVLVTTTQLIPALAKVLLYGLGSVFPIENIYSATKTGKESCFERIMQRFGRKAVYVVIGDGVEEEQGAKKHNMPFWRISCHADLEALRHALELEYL
Target sequence (Q15475 whole entry, looked up): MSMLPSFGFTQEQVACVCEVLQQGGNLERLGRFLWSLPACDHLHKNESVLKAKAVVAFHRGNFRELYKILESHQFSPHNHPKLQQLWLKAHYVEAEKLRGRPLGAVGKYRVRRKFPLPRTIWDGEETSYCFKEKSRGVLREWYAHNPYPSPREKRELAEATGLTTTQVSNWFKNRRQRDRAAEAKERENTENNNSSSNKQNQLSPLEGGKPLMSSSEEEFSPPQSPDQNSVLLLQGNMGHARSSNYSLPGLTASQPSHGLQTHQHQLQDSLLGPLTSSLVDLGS
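Six1/Eya2 binding was read as AlphaScreen signal after compounds were pinned into GST-Six1 plus His-tagged Eya2 (5X stock 250/500 nM) in pH 8.0 Tris/NaCl/TCEP buffer, beads added, then incubated 1 h, 37 C, dark.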
* = called active by the depositor; ? = inconclusive; . = not tested or not shown; & = joins results of further samples; [ ] = dose if it differs, or a comment. An unsorted share of the library; about 1% have a hit in one of these screens.

SMILES | D2 potentiator | TRPML1 blocker | D2 ag | PINK1 modulator | TRPML1 agonist | Six1-Eya2 inh
CC(C)(C)c1nnc(NS(=O)(=O)c2ccc(F)cc2)s1 | 0.4 | 1.6 | -1.6 | -0.8% | -0.5 | -2.3
O=C(c1ccc2c(c1)N(Cc1cccc(Cl)c1)C(=O)c1ccccc1S2)N1CCOCC1 | . | -6.5 | . | 1.5% | 4.2 | .
Cn1cnnc1Sc1ccc(/C=C(\CCC(=O)O)c2nc3ccccc3s2)cc1[N+](=O)[O-] | 3.8 | 4.7 | -1.9 | 0.5% | 0.8 | -20.7
O=C1C=CC(=O)N1c1ccccc1N1C(=O)C=CC1=O | -24.8 | -1.1 | -5.6 | -1.4% | 0.1 | -13.1
O=S(=O)(c1ccc(F)cc1)N1CCN(Cc2ccccn2)CC1 | 2.0 | -7.8 | 0.7 | -1.8% | -0.1 | -2.8
COc1cccc(NC(=O)C(Sc2nnc3ccccn23)c2ccccc2)c1 (configuration not stated) | -6.0 | 17.2 | 5.1 | 4.8% | -0.4 | -0.2
Cc1ccc(C(=O)O/N=C(/c2nonc2N)N(C)C)cc1 | ? | 2.4 | ? | 2.9% | -0.7 | -0.3
O=c1c2cccnc2[nH]c(=S)n1CCC1=CCCCC1 | 7.2 | -11.4 | -3.2 | 7.3% | 0.0 | -1.0
S=C(c1ccc(N2CCOCC2)cc1)N1CCOCC1 | 10.2 | 25.3 | 0.3 | 0.6%[38.3 µM] | 0.2 | 7.4
O=C(O)c1cccc(-c2nnn(Cc3ccccc3Cl)n2)c1 | -12.1 | 1.3 | -3.7 | 0.0% | 0.3 | 5.6
FC(F)(F)c1cnc(Oc2ccccc2-c2nnc(-c3ccc(Cl)cc3)o2)c(Cl)c1 | 2.2 | 16.1 | -0.1 | 4.0% | 0.0 | 15.2
CC(C)NC(=O)C(=O)NC1CCCCCC1 | -8.2 | 1.1 | -3.5 | -0.1% | -0.7 | -0.5
CCOc1ccc(NC(=O)CN2CCN(CC(=O)Nc3ccc(OC)cc3)CC2)cc1 | 5.9 | 12.3&19.0 | -0.2 | -0.5% | 0.1&-0.3 | 27.4
CCOC(=O)c1c(NC(=O)CCC(=O)NCc2ccco2)sc2c1CCCC2 | -34.9 | -1.8 | -3.0 | 2.2% | 2.2 | -3.5
Cc1cc(S(=O)(=O)NCCc2csc(-c3cccc(F)c3)n2)ccc1F | . | 0.6 | . | 22.5% | 1.7 | .
CCOC(=O)C1=CCN(S(=O)(=O)c2ccc(C)cc2)C1c1cccc(C)c1 (configuration not stated) | -1.2 | -8.7 | -3.8 | 1.8% | 0.3 | -5.6
C=CCn1c(Cc2csc(N)n2)nnc1SCC(=O)OCC | 2.7 | 0.9 | -1.9 | 15.8%[38.3 µM] | -0.3 | -16.5
COc1ccc(CN2CCn3ncc(C(=O)Nc4cc(C)cc(C)c4)c3C2=O)cc1 | 1.1 | 47.1 | -0.3 | 3.4% | 3.4 | 4.0
CN(C)Cc1c(O)ccc2occ(C(O)c3ccccc3)c12 (configuration not stated) | -12.7 | -3.5 | -0.8 | -0.9% | 0.9 | 1.6
COc1ccc(S(=O)(=O)N(C)c2ccc(C(=O)NCc3ccccn3)cc2)cc1OC | -6.3 | 2.3 | -4.4 | 0.0% | 0.2 | 0.2
CCC(C(=O)Nc1nc(C)cs1)c1ccccc1 (configuration not stated) | 1.1 | 1.4 | -3.8 | -0.6% | -0.5 | -1.0
CN1CCN(S(=O)(=O)c2cccc(C(=O)N(C)Cc3cccs3)c2)CC1 | -2.8 | 0.3 | 9.3 | -1.2% | -0.3 | 2.4
CCOCCOC(=O)C1=C(C)N(C)C(=O)NC1c1cc(Cl)c(O)c(OC)c1 (configuration not stated) | -10.7 | -26.4 | -2.2 | -1.1% | 1.3 | -3.3
Cc1sc(NC(=O)c2cccc([N+](=O)[O-])c2)c(C(N)=O)c1-c1ccc(C(C)(C)C)cc1 | -19.2 | -1.4 | 1.0 | 7.8% | 0.6 | 1.1
CC(C)(C)n1nc2c(c1NC(=O)CCCc1ccccc1)CS(=O)C2 (configuration not stated) | -1.0 | -8.6 | 1.3 | 1.3% | -0.7 | 7.2
Cc1nn(Cc2ccccc2)c(Cl)c1C(=O)NC(C)(C)C | -11.3 | -6.2 | -0.1 | -1.6% | 0.0 | 2.3
CC(C)(CNC(=O)Cc1ccc(Cl)cc1Cl)N1CCCCC1 | -2.2 | 15.0 | -1.5 | 3.3% | 0.0 | 7.8
Nc1nonc1C(=O)NC(c1ccccc1)c1ccccc1 | -1.0 | -0.3 | -3.0 | . | 0.8 | 4.9
O=C(C1=C[C@@H](C2CCCCC2)C[C@@H](OCCCCO)O1)N1CCN(Cc2ccc3c(c2)OCO3)CC1 | -8.9 | -8.6 | 1.4 | -1.1% | 0.4 | -11.6
c1ccc2cc(Cn3ccnc3)ccc2c1 | 10.7 | . | 3.8 | 0.6% | . | -1.1
O=C(NNC(=O)c1cccc2ccccc12)c1ccc(Br)cc1 | -6.0 | -12.9 | 0.6 | 10.8% | -0.3 | 0.6
Cc1ccc(N(Cc2cc(=O)[nH]c3ccccc23)C(=O)C(C)C)cc1 | -8.3 | . | -2.9 | 0.0% | . | -0.8
COc1ccc(-c2cc(NC=O)c3ncc(-c4ccc(OC)c(OC)c4)n3c2)cc1OC | -2.7 | 9.5 | 4.1 | 9.1% | 1.0 | ?
CCNC(=O)COC(=O)/C=C/c1c(C)nn(Cc2cccc(OC)c2)c1Cl | 23.1 | -8.2 | 3.2 | 1.7% | -0.4 | -4.4
CCc1cc2c(-c3ccccc3)cc(=O)oc2c2c1OCN(Cc1ccc(F)cc1)C2 | . | -16.6 | . | -2.0% | 2.0 | .
O=c1cc(Cl)[nH]c(=O)n1Cc1ccc(F)cc1 | -4.9 | 10.6 | 2.2 | -0.6% | 4.8 | -6.6
CC12CCC(C(=O)Nc3cc(F)ccc3F)(CC1=O)C2(C)C (configuration not stated) | -4.1 | -16.5 | -2.1 | 0.5% | -0.3 | 5.6
CCCc1cc(=O)n2[nH]c(Cc3ccccc3)nc2n1 | -7.1 | -14.1 | -1.2 | 0.5% | 0.9 | -2.8
CCn1c2ccccc2c2cc([N+](=O)[O-])ccc21 | 1.4 | 13.9 | -2.6 | 2.5% | 4.8 | -4.1
CCOc1ccc(CC2NCCc3cc(OCC)c(OCC)cc32)cc1OCC (configuration not stated) | -25.0 | 0.7 | -5.4 | 0.1% | -0.7 | -23.1
Cc1cccc(C(=O)Nc2cc(S(=O)(=O)N3CCOCC3)ccc2N2CCCC2)c1 | 1.5 | 10.4 | -1.2 | -0.6% | 1.5 | -7.4
CCC1=C/C(=C/c2sc3ccccc3[n+]2CC)CC(C)(C)C1 | -3.2 | -10.1 | -1.1 | 12.7% | 1.3 | -10.2
COc1ccc2cc1Oc1ccc(cc1)C[C@H]1c3cc(c(OC)cc3CCN1C)Oc1c(OC)c(OC)cc3c1[C@H](C2)N(C)CC3 | -23.9 | -6.4 | -1.6 | -0.8%&1.3% | 0.9&-0.4 | -3.5
CCCCC(NC(=O)Cc1c(C)c2cc3c(-c4ccccc4)coc3c(C)c2oc1=O)C(=O)O (configuration not stated) | -0.4 | -2.1 | -1.7 | 2.5% | 0.3 | ?
CCOc1ccc(NC(=O)C(CC(C)C)N2Cc3ccccc3C2=O)cc1 (configuration not stated) | . | -6.2 | . | 0.1% | 0.7 | .
COc1ccc(NC(=O)CSc2nc(-c3ccco3)cc(C(F)(F)F)n2)cc1 | . | 9.6 | . | 11.4% | 0.2 | .
COc1cc(C(C)=NNC(=O)c2ccncc2)ccc1O | -18.7 | -8.1 | -0.9 | 0.0% | -0.3 | -3.4
CCOc1ccc(S(=O)(=O)N2CCN=C2c2ccccc2)c(C)c1C | -6.3 | 11.0 | -6.3 | -0.3% | -0.5 | -3.9
Cc1ccc(NS(=O)(=O)c2ccc3c(c2)CC(=O)N3)c(C)c1 | 3.2 | -0.5 | 0.5 | 8.7% | 0.1 | 7.0
CN(C(=O)CSc1nnc(-c2ccco2)n1C)C1CCCCC1 | -30.5 | -6.3 | -3.6 | -0.7% | 0.7 | 10.3
Continued:
SMILES | D2 potentiator | TRPML1 blocker | D2 ag | PINK1 modulator | TRPML1 agonist | Six1-Eya2 inh
C[C@@]12C(=O)N(c3ccc(F)cc3)C(=O)N1[C@@H]1c3ccccc3OC[C@@H]1[C@H]2c1ccccc1 | -6.5 | 83.4 | -2.1 | 1.6% | 1.4 | -12.5
COC(=O)C1=C(C)N(C(C)c2ccccc2)C(=O)C1 (configuration not stated) | -7.3 | -8.5 | -0.5 | 1.1% | -0.8 | -5.5
O=C(Nc1nnc(CCN2CCCCC2)s1)C1CCCCC1 | -9.9 | 3.4 | -4.4 | 2.1% | 0.4 | -2.0
COc1cccc(Nc2nnc(-c3cc4ccc(O)cc4oc3=O)s2)c1 | . | -8.6 | . | 1.5% | ? | .
O=C1NC(=O)C(CC(=O)N(Cc2ccco2)C2(C(=O)NC3CCCC3)CCCCC2)N1 (configuration not stated) | 23.7 | -1.0 | -3.4 | -1.5% | -1.0 | 0.4
CC(=O)N1CCOc2ccc(S(=O)(=O)N3CCN(c4cccc(C(F)(F)F)c4)CC3)cc21 | -21.6 | 8.3 | -9.0 | -0.9% | 0.5 | -11.1
CCC(C)[C@H]1CNC(=S)N1CCc1cc(C(F)(F)F)cc(C(F)(F)F)c1 (some centres not stated) | -5.5 | -3.8 | -1.9 | 2.3% | 1.6 | -4.6
CCOc1ccc(-n2c(-c3ccco3)n[nH]c2=S)cc1 | -25.5 | -28.7 | -3.1 | 1.7% | -0.6 | 2.2
CCCOc1ccc(C(=O)N2CCC(c3nc4ccccc4s3)CC2)cc1 | . | 0.8 | . | 0.4% | -0.1 | .
CC(=O)Nc1ccccc1OCC(=O)N(Cc1ccccc1)C(C)C | -11.4 | -20.6 | 0.7 | -0.3% | 1.0 | 15.3
O=C(CSc1nnc(-c2cccs2)n1-c1ccccc1)N1CCCC1 | -2.8 | 19.6 | -0.6 | 8.9%[38.3 µM] | 2.2 | -2.0
CCN1C(=O)/C(=C\c2cccn2-c2ccc([N+](=O)[O-])cc2)N(CC)C1=S | 6.5 | 21.4 | -1.4 | 9.7% | 2.4 | -0.2
